PINK1 modulator: A Quantitative High throughput Screen to Identify Chemical Modulators of PINK1 Expression | AID 624263, 2012 | PINK1 immunofluorescence, high-content cytometry, 24 h | Potency, µM (highest dose often 76.6 µM), inactives show at the top dose activation (PINK1 increase), hits mostly activators | 410,000 compounds, 0.2% hits; active = well fitted activation curve with a large enough effect; inconclusive = small, poorly fitted or top-dose-only effect; inactive = flat fitted curve, though single readings scatter; cell line not stated here;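 also: potency is read from the fitted curve at half-maximal effect; % of control where 0% means no effect; nearly all actives have a fitted effect of over 65% in size; a mitochondrial uncoupler was the plate control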
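Measures PINK1 amount and localization on or inside mitochondria by immunofluorescence. Stable cells get compounds at 5 concentrations for 24 hours before fixation and staining; CCCP controls included.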
ClpP mod: qHTS Assay for Activators of ClpP; purified B. subtilis ClpP, FRET peptide cleavage, 20 min; Potency, µM (top dose mostly 57.5 µM), for the others: at the highest dose activity change, negative = active; 340,000 compounds, 1.9% hits; AID 651965, 2013; active = well fitted falling curve with a large enough effect; inconclusive = small, poorly fitted or top-dose-only effect; inactive = no such curve, though single readings can be large or run the other way; also: potency is read from the fitted curve at half-maximal effect; the source files actives as falling curves though it sought activators and does not explain the sign; nearly all actives have a fitted effect of over 65% in size; many hits overshoot -100%
Target sequence (P80244 whole entry, looked up): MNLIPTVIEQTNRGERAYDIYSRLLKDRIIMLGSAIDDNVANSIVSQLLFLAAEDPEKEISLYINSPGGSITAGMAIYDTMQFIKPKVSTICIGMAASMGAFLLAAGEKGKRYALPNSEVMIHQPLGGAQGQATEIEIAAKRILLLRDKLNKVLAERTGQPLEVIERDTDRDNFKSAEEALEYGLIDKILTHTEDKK
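FRET quenching reversal measured ClpP activation: 10 microg/mL B. subtilis ClpP at pH 8 with the FRET-FV decapeptide, read at 430 nm after 320 nm excitation. The 20-min minus 0-min signal was scaled between DMSO/no-enzyme wells and ADEP (5.8 microM final).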
TRPV1 PAM: HTS Assay for Compounds that Act as Potentiators of the Vanilloid Receptor 1; Transient receptor potential cation channel subfamily V member 1 (Homo sapiens), Q8NER1; TRPV1-expressing cells, Fluo-8 calcium influx, capsaicin EC20 potentiation; host cell line not named in the record; control for the full effect not named in the record; potentiation, % at 8.33 µM; 320,000 compounds, 0.02% hits; active means potentiation above 80%; inconclusive means 30% to 80%; inactive means below 30%; also: 0% is about no effect
Target sequence (Q8NER1 whole entry, looked up): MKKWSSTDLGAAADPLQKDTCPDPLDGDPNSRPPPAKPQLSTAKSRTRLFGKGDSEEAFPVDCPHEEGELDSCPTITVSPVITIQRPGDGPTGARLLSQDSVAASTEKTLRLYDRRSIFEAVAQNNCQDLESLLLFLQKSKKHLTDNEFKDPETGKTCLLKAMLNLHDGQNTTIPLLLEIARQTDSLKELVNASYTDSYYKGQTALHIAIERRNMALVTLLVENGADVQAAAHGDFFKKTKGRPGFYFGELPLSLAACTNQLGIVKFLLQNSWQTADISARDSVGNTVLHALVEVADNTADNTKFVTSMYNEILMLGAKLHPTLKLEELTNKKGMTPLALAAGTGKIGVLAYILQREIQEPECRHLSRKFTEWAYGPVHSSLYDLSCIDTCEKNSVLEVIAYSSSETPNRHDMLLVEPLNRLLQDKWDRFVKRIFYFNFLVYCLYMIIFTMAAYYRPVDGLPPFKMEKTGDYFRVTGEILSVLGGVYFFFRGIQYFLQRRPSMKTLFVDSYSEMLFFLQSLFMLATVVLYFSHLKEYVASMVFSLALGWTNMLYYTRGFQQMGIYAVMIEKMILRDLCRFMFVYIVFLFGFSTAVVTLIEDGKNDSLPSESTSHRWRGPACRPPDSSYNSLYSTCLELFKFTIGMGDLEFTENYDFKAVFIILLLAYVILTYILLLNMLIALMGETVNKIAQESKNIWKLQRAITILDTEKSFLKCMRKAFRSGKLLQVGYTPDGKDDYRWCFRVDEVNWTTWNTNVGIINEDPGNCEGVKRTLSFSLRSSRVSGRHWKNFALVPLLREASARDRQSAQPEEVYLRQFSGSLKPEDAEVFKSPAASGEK
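TRPV1-expressing cells were cultured overnight at 35.5C and loaded with Fluo-8 calcium dye for 40 to 90 min at room temperature. After a 10 s baseline, compound was added and calcium influx was read kinetically for 3 min (ex 480/em 520 nm).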
TRPML1 agonist: qHTS for Agonists of the Human Mucolipin Transient Receptor Potential 1 (TRPML1) | Mucolipin-1 (Homo sapiens), Q9GZU1 | TRPML1-expressing cells, Ca2+ dye fluorescence, FDSS; host cell line not named in the record; reference of the full effect not given here | activation, % (test concentration not listed) | 410,000 compounds, 0.12% hits; in the data active = activation above about 50%; inconclusive = about 30% to 50%; inactive = below about 30%; also: 0% is about no effect; the text of the record puts the active cut at 80%
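In this qHTS format, compounds were pin-transferred onto Ca8-dye-loaded TRPML1-DL cells induced with Tet overnight, and intracellular Ca2+ fluorescence was recorded kinetically for 110 s after a 10 s baseline. A subsequent 4uM final 54-4 (EC80) addition followed by a second 110 s read served as the antagonist phase.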
Sfp inh: qHTS Assay for Inhibitors of Bacillus subtilis Sfp phosphopantetheinyl transferase (PPTase). 4'-phosphopantetheinyl transferase ffp (Bacillus subtilis), Q9F4F7. Biochemical Sfp PPTase activity, qHTS. Potency, µM, for inactives: max response, negative = inhibition, most hits filed as inhibitors. 310,000 compounds, 3.5% hits. AID 1490, 2009; active = well fitted inhibition curve with a large enough effect; inconclusive = small, poorly fitted or top-dose-only effect, or another doubt; inactive = no such curve, though single readings can be large or run the other way;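 also: the enzyme is Sfp with the accession as filed and its product quenches rhodamine fluorescence; potency is read from the fitted curve at half-maximal effect; 0% = enzyme reaction without inhibitor and -100% = no enzyme wells; top concentration of the series not given in the record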
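Step 1, compound plus 15 nM Sfp-PPTase, 15 min, room temperature. Step 2, add rhodamine-CoA (5 uM) and BHQ-2-YbbR (12.5 uM). Step 3, read 525/598 nm fluorescence at 0 and 30 min.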
TRPML1 blocker: qHTS for Inhibitors of the Human Mucolipin Transient Receptor Potential 1 (TRPML1); TRPML1-inducible cells, Ca2+ dye fluorescence, FDSS; hits give low values; inhibition of EC80 agonist-evoked calcium signal; AID 624415, 2012; Mucolipin-1 (Homo sapiens), Q9GZU1; activity change, negative = inhibition, % (concentration not given with the values); 390,000 compounds, 0.02% hits; in the data active means activity change below about -50%; inconclusive means about -30% to -50%; inactive means above about -30%;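 also: stimulus is agonist 54-4 at its EC80 concentration; % is scaled to controls: 0 for no effect and ±100 for the full control effect; the text of the record puts the active cut at -80%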
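Tet-induced TRPML1-DL cells loaded with Ca8 no-wash calcium dye were read kinetically on FDSS. Compound addition was followed by EC80 agonist 54-4 (4 uM final); inhibition was read over 110 s.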
Menin-MLL FL inh: qHTS Assay for Inhibitors Targeting the Menin-MLL Interaction in MLL Related Leukemias: Competition With Fluorescein Labeled MLL-derived Peptide; Fluorescence polarization, fluorescein-MLL peptide displacement from menin; FP activity change, % at 61.4 µM; 290,000 tested, under 10 active; AID 1766, 2009; inconclusive = falling polarisation curve, or a change in total fluorescence; inactive = total fluorescence flat and polarisation flat or rising; no compound was filed as active; the % refers to the polarisation; negative = inhibition;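 also: % of control where 0% means no effect; inhibitors lower the polarisation; unlabelled MLL peptide was the positive control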
Starred values were filed as active, the others as inactive; ? = inconclusive; / = not tested or not shown; & = joins results of further samples; [ ] = another dose, or the depositor's remark.

SMILES | PINK1 modulator | ClpP mod | TRPV1 PAM | TRPML1 agonist | Sfp inh | TRPML1 blocker | Menin-MLL FL inh
CCCCCn1c(C(Cc2ccccc2)NC(=O)COC)nc2ccccc21 (configuration not stated) | 1.4% | 1.3% | 1 | 0.2 | 20% | 1 | 2.4
CS(=O)(=O)N1CCN(c2ccc([N+](=O)[O-])c(SCc3ccco3)c2)CC1 | -0.2% | / | -12 | 1.4 | 4% | -19 | -3.3
COc1ccc(-c2nc(NC(=O)c3ccc(OCC(=O)N4CCOCC4)c(OC)c3)sc2C)cc1 | 0.2% | -7.4% | -10 | 0.3 | -17% | -11 | 7.6
COc1ccc(CSCC(=O)NCCC(C)C)cc1 | 2.7% | 0.4% | 3 | -0.3 | 19% | 7 | -0.4
CCCC(=O)Nc1nnc(-c2ccc3c(c2)OCCO3)o1 | 1.0% | / | 26 | 0.3 | 14% | 22 | -5.3
Cc1nn(-c2ccccc2)c(C)c1NC(=O)COC(=O)c1cccc(OC(F)F)c1 | 1.8% | -2.0% | 9 | -0.4 | / | 24 | /
O=C(O)c1ccc(S(=O)(=O)c2ccc(Sc3ccc(C(=O)O)c(C(=O)O)c3)cc2)cc1 | 1.2% | / | 2 | -0.2 | 4% | 16 | -1.3
Cc1cc(C(F)(F)F)nn1CC(=O)NNC(=S)Nc1ccc(Cl)cc1 | 6.8%[38.3 µM] | -11% | 16 | -0.3 | 26% | 0 | 1.6
CCN(CC)c1ccc2cc(/C(N)=N/NC(=O)c3cccs3)c(=O)oc2c1 | / | / | -8 | / | 3% | / | ?
CCC(=O)N1CCc2cc(S(=O)(=O)NC(Cc3ccccc3)C(=O)NC3CCCC3)ccc21 (configuration not stated) | -0.3% | 1.0% | 3 | 2.2 | 21% | -6 | 2.0
CCOc1ccccc1N1CC(C(=O)Nc2ccccc2N2CCCC2)CC1=O (configuration not stated) | -2.2% | / | 7 | 1.0 | / | -20 | /
COc1ccc(C(=O)N2CCC3(CCCN(Cc4ccccc4OC)C3)CC2)cc1 | 0.4% | / | / | / | 9% | / | -5.6
CCOc1ccc(S(=O)(=O)N(CC(=O)NCCc2ccc(OC)cc2)c2ccccc2)cc1 | 3.1% | -2.3% | / | 0.2 | / | -6 | /
CCN(CC)CCCn1c(=S)[nH]c2ccccc2c1=O | -0.4% | -4.0% | -15 | 0.1 | -14% | -10 | 4.2
Cc1ccc(C)c(S(=O)(=O)N2CCCC2CNC(=O)C(=O)Nc2ccccc2)c1 (configuration not stated) | 2.2% | -2.0% | / | 2.3 | / | 12 | /
Clc1cccc(OCCn2cncn2)c1Cl | -0.5% | 0.9% | -9 | -0.3 | -26% | 0 | -0.2
CC1=C(C(=O)NCCCOC(C)C)C2(CCC(C)CC2)OC1=O (configuration not stated) | 1.2% | 0.6% | 7 | 0.0 | 7% | -7 | 4.5
COc1cc(/C(C)=N/Nc2ccc(C(=O)O)cc2)cc(OC)c1OC | 1.0% | -3.5% | 5 | 0.7 | -6% | -8 | 1.6
CCCCCC(=O)N1C[C@@H](n2cc(COC(=O)c3ccccc3)nn2)[C@H](O)C[C@@H]1c1ccc(OC)cc1 | 0.2% | 0.0% | / | -0.2 | / | 4 | /
Cn1c(CSCc2ccc(Cl)cc2)n[nH]c1=S | 0.8% | / | -1 | 2.3 | 13% | 1 | 0.6
CCn1c(=S)sc2c(=O)n(CC(=O)Nc3cc(OC)ccc3OC)c(C)nc21 | 3.8% | / | 4 | 0.3 | 4% | 24 | -2.6
CCOC(=O)c1c(N2CCN(c3ccccc3)CC2)cc(C)nc1C | 1.0% | -0.8% | -11 | / | -18% | / | 0.3
CCCNC(=O)C1(C)CCN1C(=O)c1cc(C)n(C)n1 (configuration not stated) | -0.2% | 1.0% | / | -0.8 | / | / | /
CCc1nnc(NC(=O)CSc2nnnn2-c2cccc(C(C)=O)c2)s1 | 1.6% | -0.5% | 11 | 3.2 | -20% | 4 | -0.8
CC(=O)c1cccc(N(CC(=O)NC2CCCCC2)C(=O)CCC(=O)Nc2nc(C)cs2)c1 | 5.1% | / | 1 | 0.3 | 5% | -3 | /
COc1cccc(OC)c1OCCCNC1CCCC1 | -1.7% | -3.6% | 9 | 0.7 | -22% | -14 | 6.6
Cc1cc(C)c2nc(N3CCC(C(=O)N4CCCC4)CC3)sc2c1 | / | -1.9% | -4 | 1.9 | 5% | -4 | -1.6
OC[C@H]1O[C@@H](Oc2cc(O)cc(/C=C/c3ccc(O)cc3)c2)[C@H](O)[C@@H](O)[C@@H]1O | / | / | 3 | / | 9% | / | 0.4
CCC1CN(C(=O)N2CCC(C(=O)N3CCN(c4cc(C)ccc4C)CC3)CC2)c2ccccc2O1 (configuration not stated) | 0.5% | 1.3% | / | 2.7 | / | 31 | /
C=CCNC(=O)c1c[nH]c2ccc(S(=O)(=O)N(C)c3ccc(OCC)cc3)cc2c1=O | 5.9% | -17% | 16 | 4.9 | 17% | 20 | 4.9
CCOC(=O)C1=C(c2ccccc2)Nc2ncnn2C1c1ccc(O)cc1 (configuration not stated) | -1.4% | / | 18 | 2.3 | 12% | -14 | -9.5
CC1(C)Cc2c(sc3ncn4c(=S)[nH]nc4c23)CO1 | 1.6% | / | 8 | -0.7 | 45µM* | -3 | 1.1
Cc1cccc(NC(=O)c2ccc(-n3c(C)nnc3C)cc2)c1 | 1.8% | 0.5% | / | -0.3 | / | -20 | /
Nc1c(C(=O)c2ccc(Cl)cc2)sc2nsc(SCCN3CCOCC3)c12 | 22% | / | -4 | 11 | ? | 16 | ?
CC(OC(=O)c1ccco1)C(=O)Nc1nc(-c2ccccc2)cs1 (configuration not stated) | 5.1% | / | / | -1.2 | / | 14 | /
CCCCn1c(=O)[nH]c(=O)c2c1nc(-c1ccc(-c3ccc(F)cc3)o1)n2C | 11% | / | 9 | 2.9 | -6% | 22 | 5.7
Cc1ccc(C(=O)Oc2ccccc2N2C(=O)C3CCCCC3C2=O)cc1 (configuration not stated) | 1.0% | -3.5% | -16 | -0.3 | 13% | 1 | 4.7
COc1ccc(OC)c(C(=O)CC2OC(=O)c3ccccc32)c1 (configuration not stated) | -1.3% | -5.4% | -9 | 2.6 | 7% | -2 | 1.9
COc1cc(CSc2nnnn2-c2ccc(C)cc2)cc(OC)c1OC | / | -4.5% | 19 | 1.2 | 0% | -4 | 0.9
O=C(O)/C(=C\c1ccco1)NC(=O)c1cccc2ccccc12 | 1.8%[38.3 µM] | -2.6% | -1 | 0.6 | 79µM* | -7 | 2.3
COc1cccc(CNC(=O)CC2Sc3ccccc3NC2=O)c1 (configuration not stated) | 0.5% | -27% | -7 | 0.3 | 16% | -23 | 0.4
COc1ccc(S(=O)(=O)Nc2ccccc2OC)cc1NC(=O)c1cc2ccccc2oc1=O | 2.8% | -2.6% | 0 | 0.7 | 15% | 13 | 1.8
COc1ccc(-c2ccc(CN3C(C(C)C)C(=O)N(Cc4cn(CCC5OCCO5)nn4)CCS3(=O)=O)cc2)cc1OC (configuration not stated) | 0.0% | -1.7% | / | 1.1 | / | 13 | /
CC1(C(=O)N2CCC(CC3CC(c4ccc(Cl)cc4)=NO3)(C(=O)NCC3CCCCC3)CC2)CC1 (configuration not stated) | 0.9% | 1.9% | 11 | -1.0 | -4% | 5 | 0.2
CCOC(=O)C1=C(CN2CCC(C(=O)OCC)CC2)NC(=O)NC1c1ccc(Cl)cc1 (configuration not stated) | 1.4% | -2.4% | / | 0.8 | / | 21 | /

Compounds from the list above with a furan ring, fused or not, in the order listed:
SMILES | PINK1 modulator | ClpP mod | TRPV1 PAM | TRPML1 agonist | Sfp inh | TRPML1 blocker | Menin-MLL FL inh
CS(=O)(=O)N1CCN(c2ccc([N+](=O)[O-])c(SCc3ccco3)c2)CC1 | -0.2% | / | -12 | 1.4 | 4% | -19 | -3.3
CC(OC(=O)c1ccco1)C(=O)Nc1nc(-c2ccccc2)cs1 (configuration not stated) | 5.1% | / | / | -1.2 | / | 14 | /
CCCCn1c(=O)[nH]c(=O)c2c1nc(-c1ccc(-c3ccc(F)cc3)o1)n2C | 11% | / | 9 | 2.9 | -6% | 22 | 5.7
O=C(O)/C(=C\c1ccco1)NC(=O)c1cccc2ccccc12 | 1.8%[38.3 µM] | -2.6% | -1 | 0.6 | 79µM* | -7 | 2.3

Other results.
SMILES | PINK1 modulator | ClpP mod | TRPV1 PAM | TRPML1 agonist | Sfp inh | TRPML1 blocker | Menin-MLL FL inh
c1ccc(-c2nc3ccccc3s2)nc1 | 1.9%&5.0% | -25% | 10&15 | 0.2&0.8 | 1%&-5% | -10&34 | -1.0&4.8
O=C(Nc1ccncc1)C1CCC(CNS(=O)(=O)c2cccc3nsnc23)CC1 (configuration not stated) | -0.2% | -0.6% | 16 | 0.4 | 3% | 1 | -0.5
COCCCNC(=O)Cn1cc(/C=C(\C#N)C(=O)NC2CCCC2)c2ccccc21 | 0.8% | -13% | -14 | -0.9 | 26% | 0 | -0.1
Cc1ccc(NC(=O)c2c(C)nn(-c3ccccc3)c2Cl)c(C)c1 | 2.3% | 0.5% | ? | 2.5 | ? | -4 | 5.1
Cc1cccc(C)c1NC(=O)C(c1ccccc1OC(F)(F)F)N1CCN(c2ccc(F)cc2)CC1 (configuration not stated) | 3.6% | -6.4% | / | -0.3 | / | / | /

Some entries already given, limited to TRPML1 blocker, Sfp inh and ClpP mod:
| Compound | TRPML1 blocker | Sfp inh | ClpP mod |
| --- | --- | --- | --- |
| COCCCNC(=O)Cn1cc(/C=C(\C#N)C(=O)NC2CCCC2)c2ccccc21 | 0 | 26% | -13% |
| Cc1ccc(NC(=O)c2c(C)nn(-c3ccccc3)c2Cl)c(C)c1 | -4 | ? | 0.5% |

Source: PubChem (National Center for Advancing Translational Sciences (NCATS))
